Sfp inh: Sfp phosphopantetheinyl transferase inhibition; Potency, µM, for the others: max response, negative = inhibition, usual class: inhibitors; Biochemical Sfp PPTase activity, qHTS; Q9F4F7; hit rate 3.5% among 310,000; active = well fitted inhibition curve with a large enough effect; inconclusive = small, poorly fitted or top-dose-only effect, or another doubt; inactive = no such curve, though single readings can be large or run the other way;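 also: the enzyme is Sfp with the accession as filed and its product quenches rhodamine fluorescence; potency is read from the fitted curve at half-maximal effect; 0% = enzyme reaction without inhibitor and -100% = no enzyme wells; top concentration of the series not given in the record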
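Fluorescence-quenching assay: 15 nM Sfp-PPTase preincubated 15 min at room temperature with compound, then 5 uM rhodamine-CoA and 12.5 uM BHQ-2-labelled YbbR peptide added. Fluorescence (ex 525/em 598 nm) read at start and after 30 min; difference gives rate.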
TRPV1 PAM: potentiators of human vanilloid receptor 1 (TRPV1); potentiation, % at 8.33 µM; Q8NER1; hit rate 0.02% among 320,000; TRPV1-expressing cells, Fluo-8 calcium influx, capsaicin EC20 potentiation; host cell line not named in the record; control for the full effect not named in the record; active means potentiation above 80%; inconclusive means 30% to 80%; inactive means below 30%; also: 0% is about no effect
Target sequence (Q8NER1 whole entry, looked up): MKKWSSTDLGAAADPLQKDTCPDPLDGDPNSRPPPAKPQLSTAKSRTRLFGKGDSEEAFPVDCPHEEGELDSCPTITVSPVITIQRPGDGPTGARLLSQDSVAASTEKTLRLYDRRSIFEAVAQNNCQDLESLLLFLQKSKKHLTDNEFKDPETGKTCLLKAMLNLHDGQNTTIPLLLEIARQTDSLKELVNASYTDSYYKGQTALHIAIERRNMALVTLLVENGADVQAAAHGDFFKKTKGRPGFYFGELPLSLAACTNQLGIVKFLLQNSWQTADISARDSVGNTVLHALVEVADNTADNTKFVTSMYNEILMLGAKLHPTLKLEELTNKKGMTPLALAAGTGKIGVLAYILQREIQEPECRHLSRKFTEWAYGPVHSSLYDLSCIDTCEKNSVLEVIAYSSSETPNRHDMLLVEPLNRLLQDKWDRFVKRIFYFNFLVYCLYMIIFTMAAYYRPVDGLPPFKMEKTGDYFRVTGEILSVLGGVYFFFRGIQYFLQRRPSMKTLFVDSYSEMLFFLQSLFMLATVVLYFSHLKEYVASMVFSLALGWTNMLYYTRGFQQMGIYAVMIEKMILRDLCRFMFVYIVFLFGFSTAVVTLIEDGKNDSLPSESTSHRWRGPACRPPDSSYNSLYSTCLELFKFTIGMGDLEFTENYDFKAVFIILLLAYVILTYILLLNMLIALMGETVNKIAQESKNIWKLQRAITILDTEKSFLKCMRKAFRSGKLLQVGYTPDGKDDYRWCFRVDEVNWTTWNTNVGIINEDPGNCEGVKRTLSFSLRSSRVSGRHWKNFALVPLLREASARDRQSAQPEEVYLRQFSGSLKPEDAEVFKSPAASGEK
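TRPV1-expressing cells were cultured overnight at 35.5C and loaded with Fluo-8 calcium dye for 40 to 90 min at room temperature. After a 10 s baseline, compound was added and calcium influx was read kinetically for 3 min (ex 480/em 520 nm).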
gsp ag: agonists of gsp mutant (McCune-Albright syndrome) | AID 624287 | gsp mutant cells, cAMP HTRF, 30 min; control for the full effect not named in the record | Potency, µM (highest dose often 76.9 µM), for inactives: top-dose activation (cAMP increase), usual class: activators | hit rate 0.13% among 340,000; active = well fitted activation curve with a large enough effect; inconclusive = small, poorly fitted or top-dose-only effect, or another doubt; inactive = no such curve, though single readings can be large or run the other way; cell line not stated here;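 also: phosphodiesterase inhibitor Ro 20-1724 added with compounds to block cAMP breakdown; potency is read from the fitted curve at half-maximal effect; nearly all actives have a fitted effect of over 60% in size; about a fifth of the inactives were tested at one dose only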
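Cells in DMEM/10% FBS with G418 were pretreated with compounds in DMSO plus […] (300 uM stock) for 30 min at 37C. cAMP was measured by HTRF (cAMP-d2 plus anti-cAMP antibody-K) after 30 min at room temperature.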
D2 potentiator: human D2 receptor positive allosteric modulation | P14416 | DiscoveRx D2 beta-arrestin cells, luminescence, 90 min; 100% = 57 uM dopamine signal | potentiation, % (no concentration beside the values) | hit rate 0.23% among 360,000 | AID 624464; active = potentiation of 50% or more; inconclusive = 30% to 50%; inactive = 30% or less;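 also: compound concentration not given in the record; tested on top of an EC20 dose of dopamine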
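PathHunter beta-arrestin assay in DiscoveRx D2 cells. Compounds were added with an EC20 of dopamine (50 nM final) for 90 min at 37 deg C. Luminescence was read 1 h after detection reagent, with 57 uM dopamine as the EC100 control.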
ClpP mod: qHTS Assay for Activators of ClpP; ATP-dependent Clp protease proteolytic subunit (Bacillus subtilis (strain 168)), P80244; purified B. subtilis ClpP, FRET peptide cleavage, 20 min; Potency, µM (series often up to 57.5 µM), inactives show at the top dose activity change, negative = active; hit rate 1.9% among 340,000; AID 651965, 2013; active = well fitted falling curve with a large enough effect; inconclusive = small, poorly fitted or top-dose-only effect; inactive = no such curve, though single readings can be large or run the other way; also: potency is read from the fitted curve at half-maximal effect; the source files actives as falling curves though it sought activators and does not explain the sign; nearly all actives have a fitted effect of over 65% in size; many hits overshoot -100%
Target sequence (P80244 whole entry, looked up): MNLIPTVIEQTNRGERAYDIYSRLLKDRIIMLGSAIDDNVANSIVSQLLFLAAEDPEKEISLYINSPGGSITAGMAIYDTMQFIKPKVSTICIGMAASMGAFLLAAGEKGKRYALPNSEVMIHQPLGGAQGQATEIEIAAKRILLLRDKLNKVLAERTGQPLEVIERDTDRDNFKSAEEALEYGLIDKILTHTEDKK
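Purified B. subtilis ClpP, 10 microg/mL final in Tris/HCl pH8 with KCl, BSA, glycerol and Tween-20, cleaved an Abz/nitrotyrosine-quenched decapeptide. Fluorescence (ex 320, em 430) was read at 0 and 20 min at room temperature. Delta was normalized to 5.8 microM ADEP and DMSO/no-enzyme controls.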
Menin-MLL FL inh: inhibitors of human menin-MLL interaction, wild-type MLL peptide; Fluorescence polarization, fluorescein-MLL peptide displacement from menin; FP activity change, % at 61.4 µM; 290,000 tested, under 10 active; AID 1766; inconclusive = falling polarisation curve, or a change in total fluorescence; inactive = total fluorescence flat and polarisation flat or rising; no compound was filed as active; the % refers to the polarisation; negative = inhibition;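 also: % of control where 0% means no effect; inhibitors lower the polarisation; unlabelled MLL peptide was the positive control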
gsp antagonist: antagonists of gsp mutant (McCune-Albright syndrome) | gsp-mutant cells, cAMP HTRF, 30 min; control for the full effect not named in the record | hit rate 0.4% among 340,000 | Potency, µM (titrated, usually from 76.9 µM), for inactives: top-dose activity change, negative = inhibition, usual class: inhibitors; active = falling curve of any shape with a large fitted effect; inconclusive = falling curve, mostly with a smaller effect; inactive = flat or rising curve; cell line not stated here;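 also: intracellular cAMP measured with PDE inhibitor Ro 20-1724 present during compound exposure; potency is read from the fitted curve at half-maximal effect; % is scaled to controls: 0 for no effect and ±100 for the full control effect; nearly all actives have a fitted effect of over 65% in size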
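Cells, 2000/well, grown 16–24 h in DMEM 10% FBS with 0.5 mg/ml G418, then compounds plus […] (300 uM addition stock), 30 min at 37C. cAMP read by HTRF (cAMP-d2 and anti-cAMP antibody-K in lysis buffer) after 30 min RT.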
The depositor's hits bear a star; u = inconclusive; x = not tested or not shown; & = joins results of further samples; [ ] = another dose, or the depositor's remark.

Order of results – Sfp inh | TRPV1 PAM | gsp ag | D2 potentiator | ClpP mod | Menin-MLL FL inh | gsp antagonist
1: COc1ccc(-c2c(C)nc(N)nc2-c2ccc(OC)cc2O)cc1
  10% | 9 | -38%[inhibitor] | 3 | x | -29 | -12%
2: Cc1cc(Cl)ccc1OCC(O)CN1C(C)CCCC1C (stereo not given)
  12% | -8 | x | x | x | -0.6 | x
3: CC(C)CN(C(=O)Cn1nnc(-c2ccc(F)cc2)n1)C1CCS(=O)(=O)C1 (stereo not given)
  x | -7 | 21%[15.4 µM] | -67 | x | x | 7%
4: CC(Nc1nc2ncn(Cc3ccccc3)c2c(=O)[nH]1)C(=O)O (stereo not given)
  -8% | -14 | -10% | 15 | -2.3% | -0.7 | 5%
5: NNC(=O)/C=C/c1ccc(Cl)cc1Cl
  1% | 12 | 7% | -7 | x | -4.2 | 5%
6: O=C(Cn1cnc2ccccc2c1=O)Nc1cccc(-c2nnc3n2CCCCC3)c1
  3% | 1 | 5% | -8 | -3.1% | 4.1 | -8%
7: CCn1c(SCC(=O)Nc2oc(-c3ccccc3)c(-c3ccccc3)c2C#N)nnc1-c1ccco1
  10% | 22 | 0% | -6 | -6.6% | -2.4 | -13%
8: CC(c1ccccc1)C1CC(=O)N(Cc2ccccc2)C1=O (stereo not given)
  6% | -12 | 31% | -2 | x | -4.2 | 0%
9: CCOC(=O)CSc1ccc(C(=O)NCCN2CCOCC2)cc1[N+](=O)[O-]
  3% | -2 | 1% | 0 | x | -1.9 | -5%
10: O=[N+]([O-])c1cnccc1Nc1ccc(Cl)cc1
  16% | 10 | -2%[15.4 µM] | 7 | -1.3% | -1.6 | -1%
11: Cc1ccc(NC(=S)Nc2ccc3[nH]c(=O)[nH]c3c2)cc1
  u | 3 | -21% | -3 | -1.6% | 0.0 | 6%
12: CCOC(=O)N1CCN(S(=O)(=O)N2CCCC(C(=O)NC(C)c3ccccc3)C2)CC1 (stereo not given)
  10% | 2 | 19% | -7 | 0.3% | x | 3%
13: CN(c1ccccc1)S(=O)(=O)c1cccc(NC(=O)Nc2ccc(Cl)cc2C#N)c1
  13% | 1 | -8%[15.4 µM] | 1 | -1.0% | 10 | -5%
14: CCOC(=O)C1=C(COC(=O)c2cc(Br)c(Br)s2)NC(=O)NC1C (stereo not given)
  x | 17 | -30%[inhibitor] | 3 | -26% | x | 0%
15: COc1ccc(C(=O)CCC(=O)Nc2cccnc2)cc1
  20% | 3 | 8%[15.4 µM] | -4 | x | 1.1 | 3%
16: CC(=O)N(c1cccc(Br)c1)c1nc(C)cc(C)c1C#N
  8% | 23 | 4%[15.4 µM] | 0 | x | 1.6 | 1%
17: Cn1c(SCC(=O)NCCc2ccccc2)nc2c([nH]c3ccccc32)c1=O
  -3% | -52 | -12%[15.4 µM] | -6 | x | -2.0 | 11%
18: Nc1ccc(S(=O)(=O)Nc2nccc(/C=C/c3cccc([N+](=O)[O-])c3)n2)cc1
  x | x | -122%[inhibitor] | 2 | -0.2% | x | x
19: CCN(CC)S(=O)(=O)c1ccc(OCC(=O)NC(=O)Cc2ccccc2)c([N+](=O)[O-])c1
  x | 6 | 5%[15.4 µM] | u | x | x | -1%
20: CN(C)S(=O)(=O)c1cc(NC(=O)CSc2nn(-c3ccc(Cl)cc3)c(=S)s2)ccc1Cl
  17% | 10 | 26%[15.4 µM] | 3 | -2.2% | 4.5 | -27%
21: CC(NC(=O)CCNC(=O)c1ccco1)c1ccc(F)cc1 (stereo not given)
  3% | 2 | -1% | -9 | -0.2% | 2.1 | 2%
22: NC(=O)CSc1nnc(-c2ccncc2)n1-c1ccc(Cl)cc1
  20% | 20 | 12% | -7 | -0.9% | 2.1 | 2%
23: CN1CCN(c2ccc([N+](=O)[O-])cc2C(=O)c2ccc(Cl)cc2)CC1
  15% | -14 | -25% | -20 | -0.7% | 0.1 | 3%
24: COc1ccc(C2(O)C(=O)Nc3ccccc32)cc1 (stereo not given)
  5% | -2 | 22%[15.4 µM] | -5 | -5.9% | 4.4 | 6%
25: COc1cc(NS(=O)(=O)c2ccc3c(c2)n(C)c(=O)n3C)cc(OC)c1
  6% | -6 | 20% | -4 | -1.1% | 1.9 | 8%
26: CSc1ccc(S(=O)(=O)NCC(=O)OCC(=O)N2CCCCC2C)cc1[N+](=O)[O-] (stereo not given)
  x | -2 | -39%[inhibitor] | -2 | -0.9% | x | -4%
27: Cc1cc(NC(=O)CSc2nc3[nH]c(=O)cc(O)c3s2)ccc1Br
  x | -1 | -18% | -16 | -16% | x | -4%
28: CCOC(=O)Cn1c(-c2cccnc2Cl)nc2ccccc21
  -12% | x | -21% | -9 | -12% | -0.6 | 0%
29: O=[N+]([O-])c1cccc(/C=N/N2CCN(Cc3ccc(Cl)cc3)CC2)c1
  -2% | 1 | u | -6 | x | 1.4 | 3%
30: CC(C)c1ccc(NC(=O)Nc2cc3sccc3n2C)cc1
  u | -5 | 23% | 5 | -1.1% | 5.7 | 6%
31: O=C(CN(C(=O)CCC(=O)Nc1nccs1)c1ccccc1F)NCCc1ccccc1
  9% | 2 | -20% | -4 | x | 0.5 | 1%
32: O=C(NCc1ccccc1)c1ccc(S(=O)(=O)C(F)F)cc1
  -6% | -14 | -50%[inhibitor] | -10 | 3.1% | -1.2 | 2%
33: Cc1ccc2c(c1)c1c(n2CC(O)CN2CCCCCC2)CCCC1 (stereo not given)
  -2% | 16 | 14%[15.4 µM] | -22 | x | -5.5 | 7%
34: COc1ccc(CCNC(=O)CN2C(=O)c3ccccc3S2(=O)=O)cc1OC
  21% | -8 | -16% | -2 | 0.1% | -1.6 | -8%
35: Cc1ccc(CN2CCN(CC(=O)N3CCC(C(N)=O)CC3)C2=O)cc1
  x | x | 11% | -2 | -1.2% | x | 7%
36: O=C(Nc1cccc(Cl)c1)OCCOC(=O)Nc1cccc(Cl)c1
  x | x | -1% | -6 | x | x | -11%
37: COc1ccc(CNC(=O)COc2ccc(S(=O)(=O)N3CCCCC3)cc2)cc1
  23% | -13 | 1% | -37 | u | x | -27%
38: CCOC(=O)c1sc(NC(=O)c2ccccc2C(=O)O)c(C(=O)OCC)c1C
  18% | x | u | 8 | -3.1% | 9.7 | u
39: S=c1[nH]nc(-c2ccccc2Cl)n1/N=C/C=C/c1ccco1
  56µM* | -9 | 3%[15.4 µM] | -11 | x | 14 | -18%
40: C/C(=N\NC(=O)c1ccccc1OCCOc1ccccc1)c1ccccc1F
  x | -2 | 12%[15.4 µM] | -4 | x | x | -26%

The closing 2 compounds of the section before lead into the next:
Order of results – Sfp inh | TRPV1 PAM | gsp ag | D2 potentiator | ClpP mod | Menin-MLL FL inh | gsp antagonist
39: S=c1[nH]nc(-c2ccccc2Cl)n1/N=C/C=C/c1ccco1
  56µM* | -9 | 3%[15.4 µM] | -11 | x | 14 | -18%
40: C/C(=N\NC(=O)c1ccccc1OCCOc1ccccc1)c1ccccc1F
  x | -2 | 12%[15.4 µM] | -4 | x | x | -26%
41: CCCCn1c(-c2cccs2)nc2nc3ccccc3nc21
  u | x | -19% | -7 | u | 5.1 | -16%
42: CC1CN(C(=O)CCC(=O)NC(C)c2ccccc2)c2cc(Cl)ccc2O1 (stereo not given)
  16% | -17 | -25% | -14 | 1.2% | 4.9 | -5%
43: CC1(C)CC2CC(C)(CN2S(=O)(=O)c2cccc(C(=O)OCC(=O)NC(N)=O)c2)C1 (stereo not given)
  x | -7 | -9%[15.4 µM] | -4 | x | x | -2%
44: Nc1nc(-c2ccc(Br)cc2)cs1
  -6% | -2 | 7% | 3 | -5.0% | 3.7 | -17%
45: CCCOc1ccc(N/C=C/C(=O)c2ccc(OC)c(OC)c2)cc1
  2% | 0 | -12% | -1 | x | 0.6 | -19%
46: O=C(N/N=C/c1ccco1)c1ccccc1OCc1ccccc1Cl
  -3% | -9 | 23% | -1 | 1.1% | 10 | -9%
47: Cc1c(/C=N/NC(N)=O)c2ccccn2c1C(=O)c1ccncc1
  1% | x | -45%[inhibitor] | 8 | -1.5% | 2.3 | -17%
48: COc1ccc(C(C)(C)C)cc1NC(=O)COC(=O)CSCc1c(C)noc1C
  x | -6 | 11% | -28 | -3.5% | x | 2%
49: CC(C)(C)C1CCC(=NNC(=O)c2ccccc2-n2cccc2)CC1 (stereo not given)
  -3% | 2 | -21% | 8 | 0.2% | 4.8 | 13%
50: O=c1c2ccccc2c(=O)n2n1Cc1ccccc1C2
  2% | u | 87% | 4 | x | -0.1 | 16%
51: COC(=O)C1=C(C(=O)OC)[C@@H]2Nc3ccccc3[C@@]23C[C@@H](C(=O)OC)N(C(C)=O)C3=N1
  15%&11% | -13 | x | -2 | 1.4% | 0.3[11.7 µM] | 4%
52: COc1ccc([N+](=O)[O-])cc1/C=N/NC(=O)CNC(=O)C(c1ccccc1)c1ccccc1
  -7% | -3 | 2% | -18 | 1.5% | 1.3 | -14%
53: O=C(N/N=C/c1ccc(Cl)c([N+](=O)[O-])c1)c1cc(-c2ccc3c4c(cccc24)CC3)n[nH]1
  11% | 3 | -14%[15.4 µM] | -1 | x | -1.9 | u
54: CC1CN(c2nc3c(c(=O)n(Cc4ccc(Cl)c(Cl)c4)c(=O)n3C)n2C)CC(C)O1 (stereo not given)
  u | -1 | u | -6 | -2.6% | 3.1 | -17%
55: CC(/C=C/c1ccccc1)=N/O
  12% | -4 | u | 11 | 0.6% | 4.5 | 7%

Quoted from above: compounds 23 to 25
Order of results – Sfp inh | TRPV1 PAM | gsp ag | D2 potentiator | ClpP mod | Menin-MLL FL inh | gsp antagonist
23: CN1CCN(c2ccc([N+](=O)[O-])cc2C(=O)c2ccc(Cl)cc2)CC1
  15% | -14 | -25% | -20 | -0.7% | 0.1 | 3%
24: COc1ccc(C2(O)C(=O)Nc3ccccc32)cc1 (stereo not given)
  5% | -2 | 22%[15.4 µM] | -5 | -5.9% | 4.4 | 6%
25: COc1cc(NS(=O)(=O)c2ccc3c(c2)n(C)c(=O)n3C)cc(OC)c1
  6% | -6 | 20% | -4 | -1.1% | 1.9 | 8%

Source: PubChem
